liver stage = Plasmodium liver-stage growth inhibition, dose response, imaging, Malaria Box, P. yoelii, HepG2-A16-CD81EGFP (AID 602156); P. yoelii liver stage in HepG2-A16-CD81EGFP, imaging; first-round cut-off not given here; calls after a first round at 10 µM; hits with a dose series show IC50 in µM; 4.8% of 5,700 active; in the data active = a potency from the dose series;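 also: infected cells exposed to compound for 48 hours before fixation; stained parasite area by imaging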
* marks the source's active call; other numbers are inactive results; i = inactive.

Molecule	liver stage
COc1ccc(CCN2C(=S)NC3c4cccc(OC)c4OC2(C)C3C(=O)Nc2ccc(C)cc2C)cc1OC (stereo not drawn)	i
CN(C)c1ccc(C=NNc2ncnc3nc[nH]c23)cc1	i
O=C(CCCn1c2ccccc2c(=O)c2ccccc21)NCc1ccc(F)cc1	i
Clc1ccccc1C(c1ccccc1)(c1ccccc1)n1ccnc1	i
CCCCN1/C(=C/c2cccc[n+]2C)Sc2cc(NC(C)=O)ccc21	i
Cc1ccc(NC(=O)N2CCN(C(=O)c3nc(-c4ccccc4)nc(C)c3C(=O)OC(C)C)CC2C)c(C)c1 (stereo not drawn)	i
COc1cc(CN(C)c2ccc3nc(N)nc(N)c3c2)cc(OC)c1OC	i
CCCNC1=C(N(C(C)=O)c2cccc(F)c2)C(=O)c2ccccc2C1=O	i
COc1ccc(-c2c(C(F)(F)F)nn(C)c2NC(=O)Nc2ccc(F)cc2F)cc1	3.45µM*
COc1cc(C=NNc2nc3ccccc3[nH]2)cc(Br)c1O	i
O=C(O)c1cccc(N2N=C(c3ccccc3)CC2=O)c1	i
CN1C(=CC=Cc2oc3ccccc3[n+]2C)Oc2ccccc21	i
COc1ccc(OC)c(-c2ccc(O)c(CNCc3ccccc3OC)c2)c1	i
O=C1NC(=Nc2ccccc2)/C(=C/c2ccc(O)cc2)S1	i
CN(CCCNc1ccnc2cc(Cl)ccc12)C(=O)c1cccc(C(F)(F)F)c1	i
CCCCN(C)C(=O)c1sc2ncn(CC(=O)N(CC)CC)c(=O)c2c1C	i
O=C(CSc1nc(NCc2ccccc2)c2ccccc2n1)NCc1ccco1	i
CCN(CC)C(CN1CCN(CC(C)C(=O)c2ccc(O)cc2)CC1)c1ccc(F)cc1 (stereo not drawn)	i
COc1cc(C=C(C#N)c2nc3ccccc3[nH]2)ccc1OCc1ccccc1Cl	i
Cc1cc(CNC(=O)CC2C(=O)NCCN2Cc2ccccc2C(F)(F)F)nn1C (stereo not drawn)	i
COc1ccc([N+](=O)[O-])cc1NC(=O)C(C)Nc1ccc(N(C)C)cc1 (stereo not drawn)	i
CCOc1ccc2c(c1)c1nnc(-c3ccc4c(c3)OCO4)c-1cn2Cc1ccc(Cl)cc1	i
Cc1cc(N2CCC(N(C)C3CCCC3)CC2)nc2cc(O)ccc12	i
COc1ccc2oc(=O)c(C(=O)N(C)c3ccc(S(N)(=O)=O)cc3)cc2c1	i
COc1ccc(C(=O)Oc2ccccc2-c2nc3ccccn3c2NC(C)(C)CC(C)(C)C)cc1	i
O=C(c1nccs1)C1CCN(C(=O)c2cscn2)CC1	i
CCc1cc2c(NCCN3CCCCC3)ncnc2s1	i
CN1CCN(c2ccc(Nc3ccnc4cc(Cl)ccc34)cc2Cl)CC1	i
Cc1ccn2c(NC(C)(C)CC(C)(C)C)c(-c3ccccc3OC(=O)c3ccc4c(c3)OCO4)nc2c1	i
CCOC(=O)C1CCN(C(=O)c2c(C)oc3c2C(=O)c2ccccc2C3=O)CC1	i
CC(=O)c1ccc(OCCSc2nc3ncnc(N)c3[nH]2)cc1	i
CC(C)(C)c1csc(NC(=O)c2ccc(S(=O)(=O)N3CCCCC3)cc2)n1	i
Cc1ccn2c(NC(C)(C)CC(C)(C)C)c(-c3ccccc3OC(=O)C3CCCCC3)nc2c1	i
O=C(Nc1ccc(-c2nc3ccc(NC(=O)c4ccc(Cl)cc4)cc3[nH]2)cc1)c1ccc(Cl)cc1	i
CCOc1ccc(Nc2cc(C)nc3ccc(OCC)cc23)cc1	i
O=C(NC1CCN(Cc2ccccc2)CC1)c1cc([N+](=O)[O-])cc([N+](=O)[O-])c1	i
Cc1noc(C)c1C(=O)N1CCC(O)(c2ccccn2)CC1	i
CCCn1nc(NS(C)(=O)=O)c2cc3cccc(C)c3nc21	i
CC(C)c1ccc(NC(=O)c2ccc(NCCCN(C)Cc3ccccc3)c([N+](=O)[O-])c2)cc1	i
O=C(Nc1ccc(-c2nc3ccccc3[nH]2)cc1)c1ccc(-c2cccc([N+](=O)[O-])c2)o1	i
CCC(C(=O)Nc1sccc1C#N)c1ccccc1 (stereo not drawn)	i
NCCCNc1ncc(C(=O)NCc2ccccc2)c(NCC2CCCCC2)n1	i
COCCN1Cc2cccc(C(=O)Nc3ccc4c(c3)OCCO4)c2C1=O	i
COc1cccc(-n2sc3c(c2=S)-c2cc(OC)ccc2NC3(C)C)c1	i
COc1cc(C(Nc2ccccn2)c2ccc3cccnc3c2O)cc(Br)c1OC (stereo not drawn)	i
CCCCc1ccc(C(=O)N(CC(=O)Nc2cc(C(C)(C)C)nn2-c2ccc(Cl)cc2)C(C)C)cc1	i
CCCc1c(C)[nH]c2ccccc2c1=O	0.279µM*
Cc1cn2c3ccccc3n(CCN3CCCC3)c2n1	1.07µM*
CCN1C(=Cc2ccc3ccccc3[n+]2CC)Sc2ccc(Br)cc21	i
Cc1cc(C)n(-c2ccc(NC(=O)C3CCN(Cc4ccncc4)CC3)cc2)n1	i

Other structures follow.
Molecule	liver stage
Cc1cc(F)ccc1NC(=O)C(C)n1c2ccccc2c2nc(=O)cc(C)n21 (stereo not drawn)	i
CCOCCCNC(=O)c1cc(NC(=O)c2ccc(Cl)c([N+](=O)[O-])c2)ccc1N1CCCCC1	i
CCOc1ccc(NC(=O)NC(Cc2c[nH]c3ccccc23)C(=O)N2CCN(C(=O)NC(C)C)C(C)C2)cc1 (stereo not drawn)	i
COc1cc(/C=C/C(=O)Nc2ccc3nc(N4CCN(c5ncccn5)CC4)cc(C)c3c2)cc(OC)c1OC	i
CCCCCCc1ccc(C(=O)NCCCCNc2ccnc3cc(Cl)ccc23)cc1	i
Cc1ccc(NC(C)C(=O)Nc2ccc(C#N)cc2)cc1S(=O)(=O)N1CCCCC1 (stereo not drawn)	i
FC(F)(F)COc1ccc(OCC(F)(F)F)c(-c2ncnn2-c2ccccc2)c1	i
Cc1cccc(C)c1NC(=O)C(O)c1ccc(Cl)cc1Cl (stereo not drawn)	i
CC(=O)N(C1=C(N(C)C)C(=O)c2ccccc2C1=O)c1ccc(Cl)cc1	i
COc1ccc(-n2nc3c(c2NC(=O)C=Cc2cc(OC)c(OC)c(OC)c2)CSC3)cc1	i

Following part:
SMILES	liver stage
COCCCNC(=O)CSCc1nc(-c2ccccc2F)oc1C	i
CCC(c1nc2ccccc2c(=O)n1-c1ccc(F)c(Cl)c1)N(CCc1ccccc1)C(=O)COc1ccccc1 (stereo not drawn)	i
COc1ccc(OC)c(-c2ccc(O)c(CNCC(C)c3ccccc3)c2)c1 (stereo not drawn)	i
COc1ccc(C2CC(=O)C3=C(C2)NC(C)=C(C(=O)OC(C)C)C3c2ccc(F)cc2)cc1OC (stereo not drawn)	i
O=C(O)c1nsnc1C(O)C(O)C(=O)O (stereo not drawn)	i
CC(=O)Nc1sc(C)c(C)c1N=Nc1ccc(S(=O)(=O)O)cc1	i
CN(C)CCCNc1ncnc2c1[nH]c1ccccc12	i
O=C(NCc1ccco1)c1cccc(Cl)c1Cl	i
CC1=C(C(=O)OC2CCCC2)C(c2ccccc2F)C2=C(CC(c3ccccc3)CC2=O)N1 (stereo not drawn)	i
O=C1CC(c2ccc(O)cc2)C2=C(CC(c3ccccc3Cl)CC2=O)N1 (stereo not drawn)	i
Oc1ccc(-c2nc3ccccc3s2)cc1CN1CCCCC1	i
CCOC(=O)c1ccc(NC(=O)c2cc(-c3ccccc3)nc3ccc(C)cc23)cc1	i
CCCC(=O)N(CCCC(C)Nc1cc(OC)cc2cccnc12)Cc1ccc(F)cc1 (stereo not drawn)	i
CCOc1cc(C2CC(=O)NC3=C2C(=O)CC(c2cc(OC)ccc2OC)C3)ccc1O (stereo not drawn)	i
CC(=O)Nc1cccc(-c2cncc(-c3ccc(C(=O)O)cc3)n2)c1	i
COc1cccc(N2C(=O)/C(=C/c3cccnc3)SC2=S)c1	i
CCOC(=O)c1cccc(NC(=O)CCn2c(-c3ccc(F)cc3)cc(C(=O)OCC)c2C)c1	i
CCOC(=O)c1ccc(N2CCN(c3ccc(F)cc3)CC2)c(NC(=O)Nc2ccccc2)c1	i
O=C(c1cccs1)N1CCN(c2ccccn2)CC1	i
O=[N+]([O-])c1cc(C(F)(F)F)c(Cl)c([N+](=O)[O-])c1Nc1cc(C(F)(F)F)ccc1Cl	i
Cc1cccc(CSc2nnc(C(Cc3ccccc3)NC(=O)C3CCCCC3)n2-c2ccc(Cl)cc2Cl)c1 (stereo not drawn)	i
C=CCSC1=NC2(CC(c3ccccc3)c3cc(Cl)c(O)cc3O2)CC(C)(C)N1 (stereo not drawn)	i
CCCCNCCN1CCN(c2cc(OC)cc(OC)c2)C[C@@H]1Cc1ccccc1	i
CCCSc1nc(N)c2c3c(sc2n1)CN(CCC)CC3	i
Oc1ccc(-c2cncc(NCc3ccccc3)n2)cc1	i
O=S(=O)(Nc1ccc(F)cc1)N1CCCCCC1	i
CC(C)CC1=Nc2cc(C(=O)NCc3ccccc3)ccc2CN1Cc1cccnc1	i
CCOc1ccccc1-n1c(SCC(=O)c2ccc(Cl)cc2)nc2[nH]ncc2c1=O	i
CC(C)c1nc(N2CCN(C(=O)Nc3ccccc3)CC2)c(C#N)c2c1COC(C)(C)C2	1.02µM*
Cc1nnc(Nc2ccc(F)cc2)c2ccccc12	i

4 entries from above, with each value named.
> Oc1ccc(-c2cncc(NCc3ccccc3)n2)cc1
  liver stage = i
> Cc1cccc(CSc2nnc(C(Cc3ccccc3)NC(=O)C3CCCCC3)n2-c2ccc(Cl)cc2Cl)c1 (stereo not drawn)
  liver stage = i
> Cc1nnc(Nc2ccc(F)cc2)c2ccccc12
  liver stage = i
> CCCCNCCN1CCN(c2cc(OC)cc(OC)c2)C[C@@H]1Cc1ccccc1
  liver stage = i

(listing goes on)
SMILES	liver stage
COc1ccc2cc3[n+](cc2c1OC)CCc1cc2c(cc1-3)OCO2	0.548µM*
CC(NCCN1CCNCC1)c1cc(C(C)(C)C)cc2c1CCC2(C)C (stereo not drawn)	i
CN1CCc2c(sc3nc(SCC(=O)NCCc4ccccc4)n(-c4ccc(Cl)cc4)c(=O)c23)C1	i
CCCc1nc2ccc(NC(=O)c3ccccc3F)cc2c(=O)n1Cc1ccc(-c2ccccc2)cc1	1.73µM*
CCNc1nc(OC)nc(Oc2ccc(=O)n(-c3ccccc3)n2)n1	i
Cc1cccc(-c2nc3cc(NC(=O)c4ccc([N+](=O)[O-])o4)ccc3o2)c1	i
COc1ccc(C(=O)N2c3cc(C)ccc3C(Nc3ccc(C)cc3)CC2C)cc1 (stereo not drawn)	i
Cc1noc(C)c1S(=O)(=O)N(Cc1ccccc1)CC(O)CN1CCC(NC(=O)c2ccccc2Cl)C1 (stereo not drawn)	i
Cc1ccc2c(Cl)c(C(=O)N3CC(C)OC(C)C3)sc2c1 (stereo not drawn)	i
COc1cncc(-c2cncc(N3CCN(CCN(C)C)CC3)n2)c1	i
O=C1c2ccccc2C(=O)C12C(c1ccc(Br)cc1)N(c1ccccc1)C1(C(=O)c3ccccc3C1=O)C2c1ccc(Br)cc1 (stereo not drawn)	i
O=c1c2sccc2nc(SCc2cccc([N+](=O)[O-])c2)n1-c1ccc(Br)cc1	i
CCCNC(=O)c1ccc(OC2CCN(CC3CCCCC3)CC2)c(Cl)c1	i
COc1ccc(O)c(C=NNc2nc3ccccc3[nH]2)c1	i
CCOc1ccc(CN(C(=O)C(C)(C)CCl)C(C)CCCN(CC)CC)cc1 (stereo not drawn)	i
CCOCCCNC(=O)C1CCCN(S(=O)(=O)c2ccc(C)cc2)C1 (stereo not drawn)	i
CCCC(=O)N1c2ccc(OC)cc2-c2c(ssc2=S)C1(C)C	i
C=CC[n+]1ccc(C=C2Sc3ccccc3N2C)c2ccccc21	i
CCN(CC)CCCNc1ccnc2cc3ccccc3cc12	i
Oc1c(C(Nc2ccccn2)c2cccc(Oc3ccccc3)c2)ccc2cccnc12 (stereo not drawn)	i
COc1ccc(C2c3cccn3-c3ccccc3N2C(=O)CN(C(=O)Nc2ccc(C(F)(F)F)cc2)C2CC2)cc1 (stereo not drawn)	i
CC(=O)N1CCc2cc(Br)cc(S(=O)(=O)N(CC(C)C)CC(C)C)c21	i
COC(=O)C1=CNC=C(C(=O)OC)C1c1cc(OC)c(OC)c(OC)c1	i
CCOC(=O)C1CCN(C(c2cc3cc(OC)c(OC)cc3[nH]c2=O)c2nnnn2Cc2ccccc2)CC1 (stereo not drawn)	i
Cc1sc2c(c1C)CN(Cc1ccco1)CN2C(=O)c1ccco1	i
C=CCOc1ccc(C2C(C(=O)OCC)=C(C)N=c3sc(=Cc4ccccc4O)c(=O)n32)cc1OCC (stereo not drawn)	i
CCOc1cccc(C2=Nc3cc(C(=O)NC(C)C)ccc3CN2CC2CCCCC2)c1	i
O=C(Nc1ccc(Oc2cccnc2)cc1)C1CCN(Cc2cc3ccccc3o2)CC1	i
CC(C)CNc1nc(NCCCN2CCCCC2C)ncc1C(=O)NCCc1ccccc1 (stereo not drawn)	i
COc1ccc(-n2cnc3cc(NCc4nc5ccccc5n4C)ccc32)cc1	i
COC(=O)C1=C(OC)C(=O)OC12C=CC(=O)C=C2	i

By substructure: the entries above with a tert-butyl group.
SMILES	liver stage
COc1ccc(C(=O)Oc2ccccc2-c2nc3ccccn3c2NC(C)(C)CC(C)(C)C)cc1	i
Cc1ccn2c(NC(C)(C)CC(C)(C)C)c(-c3ccccc3OC(=O)c3ccc4c(c3)OCO4)nc2c1	i
CC(C)(C)c1csc(NC(=O)c2ccc(S(=O)(=O)N3CCCCC3)cc2)n1	i
Cc1ccn2c(NC(C)(C)CC(C)(C)C)c(-c3ccccc3OC(=O)C3CCCCC3)nc2c1	i
CCCCc1ccc(C(=O)N(CC(=O)Nc2cc(C(C)(C)C)nn2-c2ccc(Cl)cc2)C(C)C)cc1	i
CC(NCCN1CCNCC1)c1cc(C(C)(C)C)cc2c1CCC2(C)C (stereo not drawn)	i

A portion of the library; the hit share may differ from the screen's.
